# Sa growth inh: S. aureus growth inhibition. relative growth, % (no concentration beside the values). S. aureus RN4220 growth, OD600, 20 h, 42 °C; hits give low values. 170,000 tested, 0.53% active;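 active = growth at 42 °C up to 50% and 20 or more points under that at 30 °C, or under 10% at both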;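 also: 300 nL library stock went into each well; scaled to the means of positive and negative controls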
# GIV-Gai inh: GIV-Galpha-i interaction inhibition; 210,000 tested, 0.42% active; Galpha-i3/FITC-GIV peptide fluorescence polarization, 90 min; hits give low values; scaled: aluminum fluoride 0%, vehicle 100%; AID 1224905; percent of control (FP), % (no concentration beside the values);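 active = replicate mean at 85% of control or lower, very high polarization wells dropped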;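 also: wells of about 15 µL received 100 nL stock; the first replicate is given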
# Target sequence (P08753 whole entry, looked up): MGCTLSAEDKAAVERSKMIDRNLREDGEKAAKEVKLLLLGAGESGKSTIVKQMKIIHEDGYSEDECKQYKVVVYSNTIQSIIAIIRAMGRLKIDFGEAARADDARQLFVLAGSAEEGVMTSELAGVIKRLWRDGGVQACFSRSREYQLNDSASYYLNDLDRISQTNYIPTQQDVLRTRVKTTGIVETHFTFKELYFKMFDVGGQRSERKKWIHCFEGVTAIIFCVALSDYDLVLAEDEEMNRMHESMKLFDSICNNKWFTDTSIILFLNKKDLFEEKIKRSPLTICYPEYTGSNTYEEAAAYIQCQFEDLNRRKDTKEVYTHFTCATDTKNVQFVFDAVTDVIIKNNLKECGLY
# HCMV UL50-53 inh: cytomegalovirus nuclear egress complex inhibition. inhibition, % (test concentration not listed). 190,000 tested, 0.15% active. HTRF UL50-UL53 interaction, normalized percent inhibition. AID 1918969;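 active = both replicates at 50% or more, plus weaker picks with an unusually low signal ratio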;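 also: stock transfer was 100 nL into about 20 µL; 0% = negative control wells and 100% = wells with untagged competitor protein; inactives centre near -12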
# Sa growth inh second temp: second read-out of Sa growth inh, no call of its own (marks repeat the call); relative growth, %; measured here: growth at 30 °C;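 optical density after 20 h as mean of two plates; 100% = untreated growth and lower means inhibition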
# Active calls of the source: *; . = not tested or not shown; & = joins results of further samples. An unsorted share of the library. Share with any hit: about 0.83%.
SMILES,Sa growth inh,Sa growth inh second temp,GIV-Gai inh,HCMV UL50-53 inh
O=C(O)c1ccc(-c2ccc3c(c2)OCCO3)s1,105.5,94.1,.,-13.2
CCCN(CCC)CCNC(=O)C1CCCN(S(=O)(=O)c2cccc3nsnc23)C1 (stereo not given),102.2,88.8,99.8,-99.2
O=C(Cn1c(=O)n(Cc2ccco2)c(=O)c2oc3ccccc3c21)Nc1ccc(F)c(Cl)c1,101.4,79.7,100.6,.
COCCn1c(N)c(NCc2ccccc2)c(=O)n(CC(=O)NCCc2ccc(OC)c(OC)c2)c1=O,90.4,62.1,.,-3.1
N#CC(=C=[N-])c1nc2ccccc2nc1-[n+]1cccc(NC(=O)c2ccc(Br)o2)c1,86.0,85.8,.,-17.4
Cc1nc(-c2cccs2)sc1-c1ccnn1C(=O)NC(C)C,113.1,68.6,104.1,1.5
O=C(CSC1=NC2CCCCC2N1)N1CCOCC1 (stereo not given),96.3,89.6,103.7,-5.4
O=C1CCC(=O)N1c1nc2n(n1)C(c1ccc(Cl)cc1)C=C(c1ccc(Cl)cc1)N2 (stereo not given),.,.,116.0,-1.0
COc1cc(N)c(-c2nc3ccccc3[nH]2)cc1OC,79.4,90.6,109.9,-4.8
C=CCn1cnc2c(nnn2-c2ccc(C)c(C)c2)c1=O,76.2,87.0,103.3,-35.1
COc1ccc(S(=O)(=O)N2CCC(NC(=O)NCc3ccc(C)cc3)CC2)cc1,.,.,98.6,15.1
CC(C)C(NS(=O)(=O)c1ccc2c(c1)CCCC(=O)N2)C(=O)NC1CCCCC1 (stereo not given),.,.,108.2,-22.3
Cc1nc(CC(=O)O)c(C)s1,107.4,68.9,94.2,-2.4
C#CCn1c(C2CC(=O)N(c3cccc(Cl)c3)C2)nc2ccccc21 (stereo not given),.,.,102.7,2.5
Cn1c(COc2ccc3c(c2)OCO3)n[nH]c1=S,89.9,87.5,98.0,-18.6
O=C(Nc1ccccc1)OCc1nccn1Cc1ccc(Cl)cc1,107.5,94.7,104.0,2.4
CCOC(=O)C1CNC(=S)NC1(C)O (stereo not given),92.0,88.3,.,-7.7
CCOc1ccc(NC(=O)CC2CC(C)(C)OC2=O)cc1 (stereo not given),116.4,89.0,104.1,-10.8
O=c1[nH]c2ccccc2nc1/C=C(\O)c1ccc(C2CCCCC2)cc1,93.7,96.3,201.8,.
CCC12CN3CC(C)(CN(C1)C31C(=O)Nc3ccc(Br)cc31)C2=O (stereo not given),103.0,93.0,96.5,-13.1
CCCn1c(=O)sc2cc(NC(=O)COc3ccc(Cl)cc3)ccc21,115.7,72.3,107.6,-5.9
CC1C/C(=N\NC(=O)c2ccccc2)CC(C)(C)C1 (stereo not given),102.8,96.8,.,-32.2
Cc1ccccc1C(=O)Nc1cc(-c2ccc(Cl)cc2)nn1-c1ccccc1,72.4,87.2,103.2,.
Cc1oc2ncn(Cc3ccc(Cl)cc3)c(=O)c2c1C,.,.,101.5,-21.9
O=C(C1CCCN1S(=O)(=O)c1ccc(-c2ccc(=O)[nH]n2)s1)N1CCc2ccccc21 (stereo not given),102.7,95.6,112.9,-56.5
Cc1ccc(Nc2nnc(-c3ccc(C)c(S(=O)(=O)N4CCN(C)CC4)c3)c3ccccc23)cc1,104.4,88.4,104.1,-29.2
CCOC(=O)C1=C(c2ccccc2)NC(SCC(=O)OC)=C(C#N)C1c1cccnc1 (stereo not given),.,.,103.7,-16.8
COC(=O)CNC(=O)Cn1cnc2sc(C)c(S(=O)(=O)N3CCC(C)CC3)c2c1=O,102.5,97.0,104.0,-9.9
O=c1c2ccccc2oc2cc(O)cc(O)c12,.,.,102.8,-3.0
COc1ccc(Cn2c(SCc3ccc(C(=O)NC(C)c4ccccc4)cc3)nc3cccnc32)cc1 (stereo not given),104.0,92.1,101.6,-32.3
CCN(C(=O)CSc1nc2ccccc2s1)C1CCCCC1,96.6,87.3,.,-36.7
CN(C)/C=C/C(=O)C(F)(F)F,77.3,94.4,.,-19.2
CCn1c(=NC(C)=O)sc2ccccc21,97.0,87.2,100.6,-11.6
O=C(Cc1cccc2ccccc12)N1CCN(c2cccc(C(F)(F)F)c2)CC1,98.5,92.4,105.9,.
Cc1noc(C)c1CSc1nnc(-c2ccccc2Br)n1Cc1ccccc1,105.0,93.5,.,-6.8
Cc1ccc(OCc2nn3c(C(C)(C)C)nnc3s2)cc1,83.1,78.5,98.4,-15.2
CCOC(=O)c1ccc(NC(=O)c2oc(=O)c3ccccc3c2-c2ccccc2)cc1,120.1,90.2,102.8,.
CC(Sc1nc2c(c(=O)[nH]1)CCCC2)C(=O)Nc1ccccc1Cl (stereo not given),.,.,102.1,-7.5
CC(=O)Nc1nc(CC(C)C)cc2c1c(=O)oc1ccccc12,93.5,94.8,101.0,-6.5
Cc1ccc(CNC(=O)Cn2c(=O)cc(C(F)(F)F)c3c(C)nn(C)c32)cc1,94.4,91.9,101.0,.
N#C/C(=C(/O)CCl)c1ccccn1,108.4,87.6,.,-16.6
Cc1cccc(N=C(NO)c2ccccc2)c1,98.1,96.4,106.5,0.3
CCc1cccc(C)c1NC(=O)C1CCCN(S(=O)(=O)c2cccc3nsnc23)C1 (stereo not given),99.1,89.4,100.4,-97.7
O=C(Cc1cc(F)cc(F)c1)Nc1ccc(F)cc1,104.6,92.0,100.6,-22.8
COCCN(Cc1cc2ccc(C)c(C)c2nc1Cl)C(=O)N1CCOCC1,117.0,90.7,104.0,-21.7
Cc1cccc(NC(=O)CCn2cnnn2)c1C,89.7,81.4,102.9,-17.7
CCOC(=O)Nc1cc(Cl)ccc1Cl,113.2,96.0,102.5,-8.6
COc1ccc2c(c1)c(=O)oc1c(C)c(OCC(=O)O)ccc12,92.6,89.9,100.1,-16.1
CCCCN1CC(c2nc3ccccc3n2CCCCOc2ccc(C)c(C)c2)CC1=O (stereo not given),108.6,85.7,104.8,-28.3
Cc1ccccc1Nc1nc(N)nc(CSc2nnc(Cc3ccccc3)o2)n1,92.0,95.5,.,-8.3
O=C(CCS(=O)(=O)c1nc(-c2cccs2)cc(C(F)(F)F)n1)Nc1ccc(OC(F)(F)F)cc1,77.7,90.2,96.1,-17.4
Cc1ccc2c(c1)c1c3n2CCN(C(=O)c2ccc(C(F)(F)F)cc2)C3CCC1 (stereo not given),94.0,93.8,105.3,-7.0
O=c1c2c(-c3ccc(Cl)cc3)ccnc2[nH]n1-c1ccccc1,101.1,92.6,100.5,-1.7
O=C(Nc1ccc(N2CCOCC2)c2nonc12)c1ccco1,98.9,110.8,112.6,0.1
COc1cccc(N2C(=O)CSC23C(=O)N(CC(=O)Nc2cccc(Cl)c2)c2ccccc23)c1 (stereo not given),99.1,93.2,106.7,.
O=C(Nc1cc(Cl)cc(Cl)c1)c1ccc2c(c1)N(Cc1cccc(Cl)c1)C(=O)c1ccccc1S2=O (stereo not given),118.7,90.2,101.5,.
CCOC(=O)c1cc2c(ccn2C)n1CC(=O)NC(c1ccccc1)c1ccccc1,118.5,92.8,99.0,-1.4
Cc1noc(/C=C/N(C)C)c1S(=O)(=O)N1CCCC(C(=O)N2CCc3ccccc32)C1 (stereo not given),96.6,90.3,103.5,-10.2
CC(C)(C)c1ccc(Oc2ncccc2C(=O)O)cc1,89.8,89.5,100.0,-11.4
O=C(NC1CCCCC1)c1ccc(Nc2ccnc(-c3cccc(F)c3)n2)cc1,.,.,100.3,2.4

# Filtered by structure, those above containing a tert-butyl group.
SMILES,Sa growth inh,Sa growth inh second temp,GIV-Gai inh,HCMV UL50-53 inh
Cc1ccc(OCc2nn3c(C(C)(C)C)nnc3s2)cc1,83.1,78.5,98.4,-15.2
CC(C)(C)c1ccc(Oc2ncccc2C(=O)O)cc1,89.8,89.5,100.0,-11.4

# (listing goes on)
SMILES,Sa growth inh,Sa growth inh second temp,GIV-Gai inh,HCMV UL50-53 inh
CC1Oc2ccc(-c3csc(NC(=O)c4cccnc4)n3)cc2NC1=O (stereo not given),.,.,89.8,-7.7
O=C(OCc1ccccc1F)C1CCCC1,76.7,92.1,.,-4.2
O=C(CSc1nnc(-c2ccccc2Cl)o1)N1CCCc2ccccc21,100.9,79.8,104.0,-2.9
CCC(=Nc1ccccc1N)c1c(O)n(Cc2ccccc2)c(=O)[nH]c1=O,85.8,87.2,107.4,-30.2
COc1cccc(NC(=O)c2c(O)c3ccccc3[nH]c2=O)c1,.,.,104.5,-18.9
Cc1cccc(NC(=O)Cn2cc(C(=O)C3CC3)c3ccccc32)c1,94.3,84.1,.,-1.2
CC1=C(c2ccc(C)cc2)S(=O)(=O)N(Cc2ccc(C(=O)NCc3cccc(C)c3)cc2)C1=O,101.5,94.2,106.2,.
CC(=O)Nc1nc2ccc3ccccc3c2s1,124.8,100.3,103.3,4.3
C=Cc1c(S(C)(=O)=O)sc(C(=O)OCC)c1C,90.8,91.4,100.9,-8.0
Cc1ccc(SCC(=O)Nc2ccc3oc(-c4ccccc4C)nc3c2)cc1,102.2,80.2,107.7,-1.5
COc1ccc(CCNC(=O)c2ccc3nc4ccc(Cl)cc4c(=O)n3c2)cc1OC,95.1,91.8,107.1,.
Cc1ccc(NC(=O)CCNS(=O)(=O)c2ccc3c(c2)CCCC(=O)N3)cc1,107.1,98.2,102.8,.
Cc1c(Nc2ncccc2C(=O)O)cccc1C(F)(F)F,85.6,65.2,.,-40.5&-22.7&-15.1
Cc1ccc(C(=NCc2ccccc2)NC#N)cc1,70.8,87.0,.,13.6
O=C(O)CSC1=NCCCN1,90.2,95.2,100.5,5.8
CCSc1ncc(Cl)c(C(=O)N(Cc2ccccc2)c2ccc(OC)cc2)n1,94.2,87.2,105.1,4.5
COc1ccc2[nH]c3c(=O)n(CCC(=O)NC4CCCCCC4)c(=S)[nH]c3c2c1,94.5,97.2,104.8,.
COc1ccc(NC(=O)N2CCN(c3ccc(=O)n(-c4ccccc4)n3)CC2)cc1OC,.,.,107.6,-44.8
Cc1ccc(C(=O)Nc2nc(-c3ccccc3)ns2)cc1,76.0,87.7,102.1,-19.6
CC(C)CCNC(=O)c1nn(-c2ccccc2)c(=O)c2ccccc12,94.2,94.7,.,-20.8
Cc1cc(C)nc(SCC(=O)Nc2ncc3c(n2)CCCC3=O)n1,91.7,95.8,98.6,-14.5
O=C(NC1CCCCC1)N1CCc2ccccc2C1,106.1,95.9,102.8,-26.1
CC(=O)c1ccc(NC(=O)c2nc(-c3ccc(C)cc3)n3c2CCCCC3)cc1,84.1,67.7,105.4,.
O=C(O)c1cc(N2CCN(c3ccccc3Cl)CC2)nc2ccc(NC(=O)C3CCCC3)cc12,.,.,107.3,-58.0
O=C(c1ccc(Br)cc1)N1CCC(c2nc(-c3ccc(F)cc3)no2)CC1,.,.,98.2,-5.8
COc1cc(/C=C2\Cc3ccccc3C2=O)ccc1O,75.1,44.0,139.7,-97.4

# An excerpt from further up, for reference:
SMILES,Sa growth inh,Sa growth inh second temp,GIV-Gai inh,HCMV UL50-53 inh
C=Cc1c(S(C)(=O)=O)sc(C(=O)OCC)c1C,90.8,91.4,100.9,-8.0
Cc1ccc(SCC(=O)Nc2ccc3oc(-c4ccccc4C)nc3c2)cc1,102.2,80.2,107.7,-1.5
COc1ccc(CCNC(=O)c2ccc3nc4ccc(Cl)cc4c(=O)n3c2)cc1OC,95.1,91.8,107.1,.
Cc1ccc(NC(=O)CCNS(=O)(=O)c2ccc3c(c2)CCCC(=O)N3)cc1,107.1,98.2,102.8,.
Cc1c(Nc2ncccc2C(=O)O)cccc1C(F)(F)F,85.6,65.2,.,-40.5&-22.7&-15.1
Cc1ccc(C(=NCc2ccccc2)NC#N)cc1,70.8,87.0,.,13.6
O=C(O)CSC1=NCCCN1,90.2,95.2,100.5,5.8
CCSc1ncc(Cl)c(C(=O)N(Cc2ccccc2)c2ccc(OC)cc2)n1,94.2,87.2,105.1,4.5
COc1ccc2[nH]c3c(=O)n(CCC(=O)NC4CCCCCC4)c(=S)[nH]c3c2c1,94.5,97.2,104.8,.
COc1ccc(NC(=O)N2CCN(c3ccc(=O)n(-c4ccccc4)n3)CC2)cc1OC,.,.,107.6,-44.8
Cc1ccc(C(=O)Nc2nc(-c3ccccc3)ns2)cc1,76.0,87.7,102.1,-19.6
CC(C)CCNC(=O)c1nn(-c2ccccc2)c(=O)c2ccccc12,94.2,94.7,.,-20.8
Cc1cc(C)nc(SCC(=O)Nc2ncc3c(n2)CCCC3=O)n1,91.7,95.8,98.6,-14.5
O=C(NC1CCCCC1)N1CCc2ccccc2C1,106.1,95.9,102.8,-26.1
CC(=O)c1ccc(NC(=O)c2nc(-c3ccc(C)cc3)n3c2CCCCC3)cc1,84.1,67.7,105.4,.
O=C(O)c1cc(N2CCN(c3ccccc3Cl)CC2)nc2ccc(NC(=O)C3CCCC3)cc12,.,.,107.3,-58.0
O=C(c1ccc(Br)cc1)N1CCC(c2nc(-c3ccc(F)cc3)no2)CC1,.,.,98.2,-5.8
